# Beta apoptosis – beta cell apoptosis inhibition; protection from apoptosis, % (test concentration not listed); 0.8% of 300,000 active; INS-1E cytokine-induced death, ATP luminescence, 48 h; percent of positive-control rescue, neutral wells zero; AID 435005;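 active means all replicates at 75% or more, or half of them and the mean; inconclusive means half reach 75% but not the mean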;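 further: 0% = cytokine-treated negative control wells and 100% = positive control rescue; higher means more ATP so stronger rescue from cytokine killing; wells of about 40 µL received 100 nL stock; the first replicate is given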
# Calb FLC – affects C. albicans growth with fluconazole; C. albicans CaCi-2 (fluconazole-resistant clinical isolate) + fluconazole, Alamar Blue growth, 48 h; growth inhibition, % (no concentration beside the values); 0.57% of 300,000 active; AID 1979;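 active means most replicates above 75%; inconclusive means exactly half above 75%; inactive means most below 75%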;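 further: all wells also contain fluconazole at 8 µg/ml as a sub-toxic cotreatment; 0% = median of DMSO wells and 100% = median of geldanamycin control wells; wells of about 8 µL received 7.5 nL stock; the first replicate is given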
# T cruzi repl – T. cruzi replication inhibition | 1.4% of 300,000 active | inhibition, % (no concentration beside the values) | T. cruzi beta-gal in NIH3T3, luminescence, 90 h;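 active means mean inhibition across valid replicates above about 55%, limit read from the data; inconclusive means mean below that limit but half or more replicates reach it; inactive means mean below it, under half of replicates reach it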;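 further: signal also drops with host cell toxicity which is not excluded here; 0% = plate median of DMSO wells and 100% = zero luminescence signal; higher percent means less beta-gal luminescence so fewer parasites; stock transfer was 50 nL into about 50 µL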
# B2AR ag – human beta-2 adrenergic receptor agonism by FAP; P07550; AID 504454; response, % (no concentration beside the values); Am2.2-beta2AR cells, FAP receptor internalization, flow cytometry; reference of the scale not given here; 0.43% of 340,000 active;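 active means response above a set limit, near 3 SD of response in nonfluorescent compounds, cut at about 42% in these data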;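 further: stock transfer was 100 nL into about 11 µL; a reference agonist was the positive control; negative values mostly stem from fluorescent compounds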
# Target sequence (P07550 whole entry, looked up): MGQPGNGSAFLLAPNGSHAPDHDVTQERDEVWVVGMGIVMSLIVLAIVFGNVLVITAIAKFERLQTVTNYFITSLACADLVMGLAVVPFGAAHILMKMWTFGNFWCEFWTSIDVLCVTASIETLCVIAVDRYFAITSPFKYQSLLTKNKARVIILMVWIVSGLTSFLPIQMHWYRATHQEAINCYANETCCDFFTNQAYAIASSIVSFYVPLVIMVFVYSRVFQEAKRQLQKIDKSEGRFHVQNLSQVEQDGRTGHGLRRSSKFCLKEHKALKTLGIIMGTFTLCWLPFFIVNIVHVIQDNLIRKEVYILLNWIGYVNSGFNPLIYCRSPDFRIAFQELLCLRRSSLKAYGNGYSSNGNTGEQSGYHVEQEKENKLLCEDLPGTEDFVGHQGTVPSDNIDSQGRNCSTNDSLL
# Bfl-1 A1 inh – inhibitors of the anti-apoptotic protein A1, read as caspase activation | 0.066% of 330,000 active | caspase activation, % (no concentration beside the values) | MEF A1-2A-BIM cells, Caspase-Glo 3/7 luminescence, 3 h; percent of clofoctol response, vehicle zero;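 active means over half of replicate activation scores above 10%, or exactly half above 10 with the replicate mean above 10; inconclusive means replicate mean below 10 yet half the replicates above 10; inactive means over half of replicates below 10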;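 further: wells of about 30 µL received 50 nL stock; many hits fall short of the cut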
# UCH37 DUB inh – blocks the human deubiquitinase UCH37. Q9Y5K5. purified proteasome/UCH37, Ub-AMC cleavage fluorescence. inhibition, % (concentration not given with the values). 0.33% of 330,000 active. AID 588478;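 active means mean of two replicates above 20%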;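 further: 0% = compound-free wells with enzyme and 100% = wells lacking proteasome; stock transfer was 100 nL into about 20 µL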
# Target sequence (Q9Y5K5 whole entry, looked up): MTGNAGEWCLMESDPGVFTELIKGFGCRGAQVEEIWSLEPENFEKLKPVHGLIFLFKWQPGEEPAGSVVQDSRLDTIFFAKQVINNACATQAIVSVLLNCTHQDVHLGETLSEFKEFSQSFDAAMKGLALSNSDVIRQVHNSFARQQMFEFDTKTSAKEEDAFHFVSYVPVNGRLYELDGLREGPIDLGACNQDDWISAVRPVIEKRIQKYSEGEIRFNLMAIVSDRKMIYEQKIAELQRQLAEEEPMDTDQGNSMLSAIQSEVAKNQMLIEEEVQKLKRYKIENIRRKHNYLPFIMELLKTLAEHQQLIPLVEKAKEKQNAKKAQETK
#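 Material: human UCH37 enzyme supplied as purified proteasome complex. Measure: % inhibition of Ub-AMC cleavage fluorescence. Medium: pH 7.4 Tris-HCl (50 mM) with ovalbumin, ATP-MgCl2, DTT. Times: 30 min preincubation with enzyme, 25 min cleavage at room temperature. Detection: AMC fluorescence intensity at 355/460 nm.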
# LANA-H2B inh – blocks KSHV LANA binding to histone H2A/H2B; cell-free LANA-H2A/H2B peptide, fluorescence polarization; inhibition, % (no concentration beside the values); 0.6% of 320,000 active; AID 2629; in the data active means inhibition mostly above about 10%, no sharp cut-off; inactive means mostly below about 6.7%;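 further: stock transfer was 7.5 nL into about 10 µL; 0% = median of vehicle wells and 100% = median of positive control wells; one replicate is shown; the record names a cut of 25% in any replicate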
# RanGTP-Impb inh – disruptors of Ran-importin-beta complex formation – biochemical, FRET, CFP-Ran, YFP-importin-beta, homogeneous, primary screen; 1.1% of 300,000 active; cell-free CFP-Ran/YFP-importin-beta FRET ratio; inhibition, % (no concentration beside the values); AID 2216;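 active means most replicates above 15%; inconclusive means exactly half above 15%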;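 further: 0% = DMSO wells and 100% = Ran loaded with GDP instead of GTP; wells of about 40 µL received 100 nL stock; the first replicate is given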
# The depositor's hits bear a star; ? = inconclusive; . = no result given. Rows are unselected, and some 4.3% of all compounds hit somewhere here.
SMILES,Beta apoptosis,Calb FLC,T cruzi repl,B2AR ag,Bfl-1 A1 inh,UCH37 DUB inh,LANA-H2B inh,RanGTP-Impb inh
COc1ccccc1NC(=S)N(Cc1ccc(C)cc1)Cc1cccnc1,9,-7,17,2,1.1,6.5,0.9,0.7
O=[N+]([O-])c1ccc2nc(Cl)nc(-c3ccccc3)c2c1,3,-2,-8,33,0.0,.,-2.0,2.7
COC(=O)C(C)N(C(=O)c1cccc2ccccc12)c1c(C)cccc1C (configuration not stated),-5,-4,17,-12,-0.3,4.7,2.3,-0.2
Cc1ccc(-c2nnc(N3CCCCC3)c3ccccc23)cc1S(=O)(=O)NCC1CCCO1 (configuration not stated),0,8,5,-11,-0.5,4.7,4.8,3.7
Cc1ccccc1N(CC(=O)Nc1ccccc1C(=O)O)S(C)(=O)=O,0,-9,-14,6,1.0,2.3,0.3,0.4
c1ccc2c(c1)ccc1nnnn12,.,4,0,-6,0.7,2.9,4.3,1.6
COc1ccccc1NC(=O)CN1CCC(c2nc3ccccc3[nH]2)CC1,-7,31,9,-7,1.2,2.5,1.6,4.8
NS(=O)(=O)c1ccc(NS(=O)(=O)c2ccc(C3CNC(=O)C3)cc2)cc1 (configuration not stated),-7,-1,-8,17,-0.6,1.3,1.1,-0.3
COCCC(=O)N1CCc2c([nH]c3ccccc23)C1C(C)(C)C (configuration not stated),-2,20,-7,0,0.5,-1.6,1.9,4.6
COc1cccc(N2CCN(C(=O)c3ccc(CS(=O)c4ccc(Cl)cc4)o3)CC2)c1 (configuration not stated),5,-5,-8,8,0.7,-0.2,-1.3,-2.5
COc1ccc(CNC(=O)C(c2ccc(C)o2)N(C(=O)c2csnn2)c2ccc(C(C)C)cc2)cc1 (configuration not stated),-1,17,42,-1,0.4,4.9,0.3,2.1
CC(C)c1nc(SCc2c(F)cccc2Cl)c2c(=O)n(C)c(=O)n(C)c2n1,21,3,21,4,.,5.0,-0.9,0.2
CCC(=O)N1CCN=C1SCc1cc(C)ccc1C,.,-4,20,-14,0.5,0.8,-0.2,-2.6
COc1ccc(OCCOC(=O)CNS(=O)(=O)c2ccc(SC)c([N+](=O)[O-])c2)cc1,-3,2,2,13,0.0,2.1,4.9,0.4
CCC1CCCCN1CCCNC(=O)Cn1c(=O)c2cccn2c2ccccc21 (configuration not stated),-3,-2,3,2,0.0,1.8,3.2,-0.1
CCCc1nc2ccccc2c(C(=O)OCC(=O)N2CCc3ccccc32)c1CC,-9,10,58*,2,0.3,3.7,0.0,0.2
CC(=O)N1N=C(c2cccc([N+](=O)[O-])c2)OC1c1cccc(Br)c1 (configuration not stated),3,19,4,-6,-1.2,2.9,-2.0,0.2
Cc1cccc(NC(=O)CSc2nc3[nH]c(=O)cc(O)c3s2)c1,-3,.,.,-5,0.9,3.2,1.5,.
COc1ccc(NC(=O)COC(=O)CC2CCCC2)cc1Cl,0,-5,-5,0,0.3,3.8,0.1,1.1
COc1ccc(S(=O)(=O)N(CC(=O)NCc2ccco2)c2ccc(F)cc2)cc1,-1,-1,10,2,-0.3,0.8,4.0,-0.3
COc1cnc(-c2ccccc2)nc1Sc1ccccc1,3,-24,16,1,-0.5,2.8,-7.9,0.3
O=C(NC1CCN(Cc2cccc([N+](=O)[O-])c2)CC1)c1ccccc1,.,6,17,-14,1.3,2.0,-5.9,1.8
O=C(NC(=S)Nc1c(Cl)ccc2nsnc12)c1ccccc1F,0,36,-23,14,0.3,1.2,-1.4,4.9
COC(=O)c1ccc(N2CCc3ccccc32)c([N+](=O)[O-])c1,2,2,-11,10,-0.7,2.1,-1.2,-0.6
CC(=O)c1c(-c2ccccc2)c2cc(Cl)ccc2[nH]c1=O,-4,-10,3,-9,0.9,-0.4,-2.6,-2.2
# Additional compounds follow:
SMILES,Beta apoptosis,Calb FLC,T cruzi repl,B2AR ag,Bfl-1 A1 inh,UCH37 DUB inh,LANA-H2B inh,RanGTP-Impb inh
CCc1nc(Nc2ccccc2F)c2oc3ccccc3c2n1,4,6,-6,-11,-0.8,-17,0.6,1.9
CCCC(O)(CCC)C(=O)NN1CCCCC1,-5,-22,-5,3,0.0,-0.3,-6.4,1.1
CC/C(=N/NC(=O)CNc1ccc(Cl)cc1C)c1ccccc1,4,-25,5,3,-0.3,.,2.2,-1.8
Cn1nnc2cc(C(=O)Nc3ccccc3F)ccc21,4,-21,-23,0,-0.7,-0.3,-3.1,-1.3
Cc1cc(NS(=O)(=O)c2ccc(NC(=O)c3cnc4sccn4c3=O)cc2)nc(C)n1,-3,4,-2,-3,1.3,3.0,-5.2,-0.6
C[C@@H](C(=O)NCc1c(F)cccc1Cl)N1C(=O)N2CCc3c([nH]c4ccccc34)[C@@]2(C)C1=O,.,-3,0,6,1.0,-0.4,1.7,9.1
COC(=O)c1ccc(C)c(NS(=O)(=O)c2ccc3c(c2)OCCO3)c1,10,-15,-70,-1,-0.7,2.6,1.3,6.4
CC(C)CC(COCc1ccc(Cl)cc1)N1CCN(C(=O)c2ccc(C(F)(F)F)cc2)CCC1=O (configuration not stated),6,5,35,5,0.0,5.0,-1.8,3.2
COCCN1Cc2cccc(C(=O)Nc3ccc(S(=O)(=O)N4CCCCCC4)cc3)c2C1=O,1,4,13,3,-0.9,-5.6,2.7,-0.4
CC1=C(C(=O)Nc2ccc(F)c(F)c2)C(c2cccs2)NC(=S)N1 (configuration not stated),-2,-1,2,-1,0.1,1.1,3.3,4.6
CCOc1ccccc1/C=N/OCC(=O)NCc1ccc(F)cc1,-4,1,4,-3,1.2,.,1.0,1.4
COc1ccc(C(=O)CSc2nnc(CNC(=O)c3ccco3)n2C)cc1OC,1,1,-2,-6,-0.4,2.3,5.4,-0.2
C/C(=N\NC(=O)CNC(=O)C(c1ccccc1)c1ccccc1)c1ccc(C(C)(C)C)cc1,6,-3,6,-2,-0.2,.,3.0,-1.5
C=CCNc1nc(-c2ccc3c(c2)OCCO3)cs1,-2,6,4,8,-9.1,-1.7,2.6,0.7
Cc1cc(C)c(NC(=O)COC(=O)c2cccc3c2C(=O)c2ccccc2C3=O)c(C)c1,3,-2,-9,-3,-0.2,3.8,-5.2,-3.9
CC(C(=O)Nc1ccc(Cl)cc1)N(C)Cc1cccs1 (configuration not stated),.,-2,6,-5,-1.7,2.4,1.1,3.4
O=C1C=C(c2ccc(Oc3ccccc3)cc2)C[C@@H](c2ccc(Cl)cc2)C1,0,.,.,-6,-0.5,1.7,-6.5,.
COc1ccc(-c2csc(Nc3ccccn3)n2)cc1OC,-4,-5,6,-13,-0.9,5.5,-3.6,-2.9
Cc1cc(N2CCN(C)CC2)nc2ccc(NC(=S)N3CCN(c4ccccn4)CC3)cc12,-1,7,43,7,0.6,0.9,3.3,-1.0
CC(C)Oc1cccc(C2NC(=O)c3ccccc3O2)c1 (configuration not stated),-4,1,-6,-15,0.7,3.2,6.0,1.3
CCn1c(SCC(=O)NNC(=O)c2ccccc2)nnc1-c1ccncc1,-1,-10,-22,-7,0.4,5.6,-1.0,1.9
O=C(CSc1n[nH]c(-c2cccnc2)n1)Nc1ccc(Br)cc1,-3,-3,-8,-7,-0.1,2.1,-8.1,1.0
Cc1cc(C)nc(/N=C(\NC(=O)C(C)(C)C)Nc2ccccc2)n1,-3,1,-10,-23,-0.2,.,0.6,6.8
Cc1ccc(NC(=O)C2CCN(S(=O)(=O)c3c(C)noc3/C=C/c3ccco3)CC2)nc1,5,?,0,-2,0.7,0.8,1.8,-1.9
CCc1nc(NCc2ccc3c(c2)OCO3)c2oc3ccccc3c2n1,-2,-6,33,-11,-1.1,0.8,-1.8,7.8

# For convenience, 4 of the compounds above:
SMILES,Beta apoptosis,Calb FLC,T cruzi repl,B2AR ag,Bfl-1 A1 inh,UCH37 DUB inh,LANA-H2B inh,RanGTP-Impb inh
O=C(CSc1n[nH]c(-c2cccnc2)n1)Nc1ccc(Br)cc1,-3,-3,-8,-7,-0.1,2.1,-8.1,1.0
Cc1cc(C)nc(/N=C(\NC(=O)C(C)(C)C)Nc2ccccc2)n1,-3,1,-10,-23,-0.2,.,0.6,6.8
Cc1ccc(NC(=O)C2CCN(S(=O)(=O)c3c(C)noc3/C=C/c3ccco3)CC2)nc1,5,?,0,-2,0.7,0.8,1.8,-1.9
CCc1nc(NCc2ccc3c(c2)OCO3)c2oc3ccccc3c2n1,-2,-6,33,-11,-1.1,0.8,-1.8,7.8

# Exported with two lines to a compound: 2 of the compounds above
# Values in the order – Beta apoptosis	Calb FLC	T cruzi repl	B2AR ag	Bfl-1 A1 inh	UCH37 DUB inh	LANA-H2B inh	RanGTP-Impb inh
COc1ccc(NC(=O)COC(=O)CC2CCCC2)cc1Cl
    0	-5	-5	0	0.3	3.8	0.1	1.1
COc1cccc(N2CCN(C(=O)c3ccc(CS(=O)c4ccc(Cl)cc4)o3)CC2)c1 (configuration not stated)
    5	-5	-8	8	0.7	-0.2	-1.3	-2.5

# Continued:
SMILES,Beta apoptosis,Calb FLC,T cruzi repl,B2AR ag,Bfl-1 A1 inh,UCH37 DUB inh,LANA-H2B inh,RanGTP-Impb inh
CC(C)NC(=O)c1cc2c(-c3ccc(Cl)cc3)nn(C)c2s1,-1,4,-27,-4,-0.1,-8.3,0.2,12
CN1CCN(CC(=O)Nc2ccc([N+](=O)[O-])cc2Br)CC1,-4,28,17,-11,-0.1,2.9,-0.7,9.4
O=C(NCc1ccccn1)C1CCN(S(=O)(=O)N2CCCC2)CC1,17,-3,-5,3,1.3,4.0,0.0,-0.5
CCc1ccc2oc(C(=O)NCCc3ccc(S(N)(=O)=O)cc3)cc(=O)c2c1,0,-6,-18,-2,0.1,-1.3,9.6,-1.3
CCc1cc(-c2onc(C)c2-c2cscn2)c(O)cc1OC,0,-1,-8,-3,1.1,1.0,-5.6,-0.6
COc1ccc(N2CCN(C(=O)CSc3nc4[nH]ncc4c(=O)n3-c3cccc4ccccc34)CC2)cc1,3,-9,18,8,0.1,1.8,-0.4,1.1
Cn1c(=O)cc(N)n(Cc2ccccc2)c1=O,-3,11,3,-18,0.5,0.6,2.2,2.0
O=C1NN(c2cccc(Br)c2)C(=O)/C1=C\c1ccc(O)cc1,-11,-12,11,4,0.2,.,0.4,-1.9
COc1ccc(CCC(=O)OCC(=O)NCc2ccc(OC)c(OC)c2)cc1OC,-5,.,.,1,0.8,-0.2,4.1,.
Cn1nc(OCC(=O)O)cc1C(F)(F)F,-5,0,-11,-2,1.5,4.8,-4.7,0.5
O=C(NCC1CCCO1)C(c1cccs1)N(Cc1cccs1)C(=O)Cn1nnc(-c2cccs2)n1 (configuration not stated),2,.,.,13,1.2,0.7,-2.1,.
CCN(CC)S(=O)(=O)c1ccc(C(=O)OCn2nnc3ccccc3c2=O)cc1,.,-3,-5,-1,-0.3,-2.2,-1.4,-2.9
CN(Cc1ccccc1)C(=O)c1ccc(NC(=O)Cc2cccc(NC(=O)C3CCCN(C(=O)CCc4ccccc4)C3)c2)cc1 (configuration not stated),2,.,.,-1,-0.6,3.8,2.4,.
NC(=NC(=O)c1ccccc1)N1CCN(C(c2ccccc2)c2ccccc2)CC1,.,-2,50,5,1.0,4.2,-0.4,4.6
N#Cc1c(/N=C/c2cccs2)sc2c1CCCCC2,0,16,?,-11,-14,.,3.4,-8.4

# Assay outcomes (PubChem)
